Compound activity as filed in PubChem.
FGF22 binding = binders of human FGF22 protein, primary screen, FGF22 synaptogenesis inhibitor project, biophysical, thermal shift, single point. Fibroblast growth factor 22 (Homo sapiens), Q9HCT0. recombinant FGF22 thermal shift, SYPRO orange fluorescence; percent of sucrose octasulfate shift, DMSO zero. calls only at 9.99 µM. 1.5% of 340,000 active. AID 651658, 2012;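 active = melting point raised past a set limit in the mean and every replicate; inconclusive = no clear call; three in four hits are not shown here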
Target sequence (Q9HCT0 whole entry, looked up): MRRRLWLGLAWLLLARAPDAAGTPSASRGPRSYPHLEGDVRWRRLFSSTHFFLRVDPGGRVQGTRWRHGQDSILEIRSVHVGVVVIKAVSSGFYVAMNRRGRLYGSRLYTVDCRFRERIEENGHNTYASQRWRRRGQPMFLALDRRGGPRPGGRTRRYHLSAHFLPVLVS
Vif TR-FRET = inhibitors of Vif binding to APOBEC3G peptide, primary screen, biochemical, TR-FRET, GST-Vif 1-94, biotin-A3G peptide, dose response retest (AID 1117319). TR-FRET GST-Vif / biotin-A3G peptide binding; higher % means a stronger effect; test concentration not given here; strong numbers were not always called active. inhibition, %, or IC50 in µM where a hit was titrated. 0.57% of 260,000 active;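 active = above the screen mean plus three standard deviations and confirmed in dose response; inconclusive = results disagree or hit not tested in dose response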;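 also: Vif residues 1-94 fused to GST binding biotinylated APOBEC3G peptide 110-148; 0% = full assay without inhibitor and 100% = GST in place of GST-Vif; retest series ran down from 100 µM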
RanGTP-Imp inh = inhibitors of RanGTP-importin-beta interaction, primary screen, biochemical, FRET, CFP-Ran, YFP-importin-beta, homogeneous; Ran GTPase (GTP-bound) - importin-beta complex; cell-free CFP-Ran/YFP-importin-beta FRET ratio; inhibition, % (test concentration not listed); 1.1% of 300,000 active;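 active = most replicates above 15%; inconclusive = exactly half above 15%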;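 also: 0% = DMSO wells and 100% = Ran loaded with GDP instead of GTP; wells of about 40 µL received 100 nL stock; the first replicate is given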
E coli growth = E. coli growth inhibition, primary screen, OD600; OD600 absorbance (no concentration beside the values); Escherichia coli growth, 23 h; stronger effect = lower value; 0.21% of 330,000 active;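 active = OD600 absorbance below the run mean of sample wells minus 3.6 SD, in any replicate, cut at about 0.56 in these data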;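 also: stock transfer was 300 nL into about 60 µL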
MLL AF4-AF9 inh = inhibitors of AF4 peptide binding to AF9, primary screen, biochemical, AlphaScreen, biotin-AF4 peptide, FLAG-AF9, single point; Protein AF-9 (Homo sapiens), P42568; inhibition, % at 10 µM; 0.47% of 350,000 active;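 active = every replicate reaching a set inhibition limit, whatever the replicate mean, cut at about 25% in these data; inconclusive = mean inhibition reaches that limit but some replicates miss it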;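 also: 0% = plate neutral control median and 100% = total signal loss; the record names both 10 and 1 µM as test concentration; the first replicate is given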
Target sequence (P42568 whole entry, looked up): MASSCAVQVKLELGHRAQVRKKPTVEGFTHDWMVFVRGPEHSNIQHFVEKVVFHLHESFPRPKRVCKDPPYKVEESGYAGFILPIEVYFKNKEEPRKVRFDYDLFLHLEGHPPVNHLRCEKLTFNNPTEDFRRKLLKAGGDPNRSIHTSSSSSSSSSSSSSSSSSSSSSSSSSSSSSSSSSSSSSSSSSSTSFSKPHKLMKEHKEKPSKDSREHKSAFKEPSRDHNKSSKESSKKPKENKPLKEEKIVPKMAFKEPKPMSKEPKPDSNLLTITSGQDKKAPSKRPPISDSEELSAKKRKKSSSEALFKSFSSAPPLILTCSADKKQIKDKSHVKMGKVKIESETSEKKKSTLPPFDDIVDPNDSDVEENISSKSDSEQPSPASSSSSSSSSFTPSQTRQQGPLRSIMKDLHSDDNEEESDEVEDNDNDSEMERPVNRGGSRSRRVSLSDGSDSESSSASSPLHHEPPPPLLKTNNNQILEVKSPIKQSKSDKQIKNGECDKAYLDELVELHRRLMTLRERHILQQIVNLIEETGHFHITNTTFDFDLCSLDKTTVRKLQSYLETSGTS
HNF4A DNA FP = change in binding of human HNF4A to DNA, primary screen, biochemical, fluorescence polarization, FITC-DNA; 1 h; 0.3% of 360,000 active; AID 1224865, 2016; activity change, % at 10 µM; in the data active = activity change above about 30%, passing the limit was not always enough;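 also: controls were the assay level and a saturating level of protein; the project sought stronger binding though the title names inhibitors; some compounds called inactive have numbers as strong as hits; positive values seem to mean higher polarization but the record does not say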
UCH37 inh = inhibitors of human UCH37 deubiquitinase, primary screen, biochemical, Ub-AMC cleavage, fluorescence; 0.33% of 330,000 active; purified proteasome/UCH37; Ubiquitin carboxyl-terminal hydrolase isozyme L5 (Homo sapiens), Q9Y5K5; inhibition, % (test concentration not listed);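 active = mean of two replicates above 20%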;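 also: 0% = compound-free wells with enzyme and 100% = wells lacking proteasome; stock transfer was 100 nL into about 20 µL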
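system = Proteasome-associated human UCH37 deubiquitinase | amount = 0.15 nM proteasome as dispensed | medium = pH 7.4 Tris-HCl (50 mM) with ovalbumin, ATP-MgCl2, DTT | incubation = 30 min preincubation with enzyme, 25 min cleavage at room temperature | detection = AMC fluorescence 355/460 nm | read-out basis = percent inhibition | controls = no-proteasome and no-compound wells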
Numbers without * were called inactive; i = inactive; ? = inconclusive; nt = not tested or not shown; & = joins results of further samples. Not all compounds are listed; rates above refer to the full screens.

Every second line gives: E coli growth	FGF22 binding	HNF4A DNA FP	RanGTP-Imp inh	UCH37 inh	Vif TR-FRET	MLL AF4-AF9 inh
CC/C(O)=N\S(=O)(=O)c1ccc(N=NN(C)C)cc1
 : nt	nt	-0.6	2.9	nt	2%	nt
O/N=C/c1ccccc1Oc1ccccc1
 : nt	nt	-1.1	-2.3	nt	31%	nt
Cc1cc(=O)oc2cc(NC(=O)Cc3ccccc3)ccc12
 : 0.7	i	-2.2	11	-76	nt	-3.9
Cc1ccc(C2c3c(oc4ccccc4c3=O)C(=O)N2CCCN2CCOCC2)o1 (stereo unspecified)
 : 0.68	nt	-2.9	?	-0.5	20%	nt
CCN(CC)S(=O)(=O)c1ccc(C(=O)Nc2nnc(COC)o2)cc1
 : 0.75	i	-2.1	-1.3	4.4	-11%	3.8
Cc1cccnc1Nc1nc(-c2ccccn2)cs1
 : 0.5*	nt	1.4	-2.4	2.8	-1%	nt
Cc1ccc(NC(=O)c2ccc(Cl)c(S(=O)(=O)N3CCCCC3)c2)nc1
 : 0.66	i	8.4	nt	1.9	5%	4.9
OC[C@@H]1CN(Cc2cccs2)C[C@H](n2cnc3c(N4CCCC4)ncnc32)O1
 : nt	i	2.3	nt	nt	nt	1.2
Cc1ccc(C(=O)CC(C(=O)O)n2cncn2)cc1 (stereo unspecified)
 : 0.63	i	3.2	2.3	1.7	-11%	-13
Cc1ccncc1C(N)=O
 : 0.69	i	-1.1	5.4	2.5	?	-4.5
COc1ccc(CCNC(=S)NC(=O)c2ccccc2)cc1OC
 : 0.74	nt	-2.1	-1.8	-2.0	0%	nt
O=C1NC[C@@H](CCCCN2C[C@H](Cc3ccc(O)cc3)N(Cc3ccccc3)C(=O)C2=O)N(CC2CCCCC2)C1=O
 : nt	i	2.0	nt	nt	nt	0.0
C[C@H](CO)N1C[C@H](C)[C@@H](CN(C)S(=O)(=O)c2ccc3c(c2)OCCCO3)OCc2cnnn2CCCC1=O
 : nt	i	-3.5	nt	nt	-1%	-2.6&0.0
COc1ccc(C)c2sc(=NC(=O)c3ccccc3)n(C)c12
 : 0.78	i	5.4	0.1	-70	-1%	-12
CN(C)c1nc2c(c(=O)[nH]c(=O)n2C)n1Cc1ccccc1Br
 : 0.73	nt	-0.8	1.3	0.9	-3%	nt
O=P(O)(CN1CCCCCC1)CN1CCCCCC1
 : 0.63	nt	nt	-0.8	2.7	53%	nt
O=C(NC(=S)Nc1ccccc1Br)C1CCC1
 : 0.69	i	2.8	3.3	-0.3	nt	-0.9
Cc1ccc(NC(=O)C/C(N)=N/OC(=O)Nc2ccc(C)c(Cl)c2)cc1
 : nt	i	-1.4	nt	nt	nt	?
O=C(Cc1ccccc1[N+](=O)[O-])c1ccc2c(c1)OCO2
 : nt	i	0.7	nt	nt	-8%	-1.4
CCCCC(C(=O)OCC(=O)c1ccc(OC)cc1)N1C(=O)c2ccccc2C1=O (stereo unspecified)
 : 0.7	i	-6.2	8.7	2.0	-1%	1.8
N#CC1(NC(=O)COC(=O)Cc2n[nH]c(=O)c3ccccc23)CCCCC1
 : 0.67	i	5.6	5.5	1.3	-6%	0.3
O=C(Nc1ccccn1)c1ccc2nc(-c3ccccc3)c(-c3ccccc3)nc2c1
 : 0.67	nt	nt	-1.6	-12	-22%	nt
COc1ccc(/C=N/N2CCN(Cc3ccccc3)CC2)cc1
 : nt	i	0.0	-0.4	nt	14%	6.3
CCOc1ccc(NS(=O)(=O)c2ccc(C(=O)N(C)CC(=O)Nc3cccc(OC)c3)cc2)cc1
 : 0.67	i	-1.7	nt	2.2	nt	1.0
Cc1ccc(SCC(=O)OCC(=O)NCc2cccs2)cc1C
 : 0.71	i	1.3	0.9	2.3	-4%	1.3
CC1Cc2ccccc2N1C(=O)COC(=O)CCc1nc2ccccc2c(=O)[nH]1 (stereo unspecified)
 : 0.66	i	7.8	-3.6	4.1	-9%	-1.7
CC(=O)Nc1ccc(-n2nnnc2SCC(=O)NC2CCCC2)cc1
 : 0.66	i	0.1	-2.4	5.5	nt	-3.2
COc1cccc2oc(-c3ccco3)cc(=O)c12
 : 0.58	i	0.4	-3.3	-21	19%	-5.0
COc1ccccc1S(=O)(=O)Cc1ccc(C(=O)NCc2ccco2)o1
 : 0.64	i	-2.9	2.4	-0.2	2%	1.6
Cc1ccc(-c2[nH]nc3c2C(c2cccnc2)C(C#N)=C(N)O3)cc1 (stereo unspecified)
 : 0.66	nt	-2.5	2.0	1.4	-2%&-1%	nt
Cc1ccc(/C=C/c2ccc(=O)n(Cc3ccc(Cl)cc3Cl)n2)cc1
 : 0.73	nt	-2.4	-2.3	nt	22%	nt
CN1C(=O)c2ccc(C(=O)Nc3ccc4c(c3)OCO4)cc2C1=O
 : 0.75	i	-2.3	1.5	0.8	nt	-0.4
CCOC(=O)/C(C#N)=C1/CCCCCN1C
 : 0.7	nt	-3.3	2.7	6.6	-5%	nt
CCOC(=O)[C@H]1[C@H]2COc3cc(OC)ccc3[C@@H]2N2C(=O)N(c3ccc(Br)cc3)C(=O)[C@@]12C
 : nt	nt	0.1	-0.8	-1.5	nt	nt
O=C(c1cc(Cl)nc2ccccc12)N(Cc1nnc(-c2ccccc2Cl)o1)C1CC1
 : 0.73	i	3.1	-0.5	0.9	-8%	-0.5
O=C(C1=C[C@H](c2ccccc2)C[C@H](OCCCCO)O1)N1CCN(Cc2ccccc2)CC1
 : nt	i	2.8	-2.4	1.7	1%	0.9
O=C(Nc1cc(Cl)cc(Cl)c1)N1CCCN(Cc2ccccc2)CC1
 : 0.63	i	-0.1	6.0	6.7	-2%	4.2
Cc1cccc(C)c1-n1c(=O)n(Cc2ccccc2)c(=O)c2[nH]cnc21
 : 0.7	i	1.5	0.7	3.0	2%	1.5
CC1CCCN(CC(=O)Nc2ccc(S(=O)(=O)NC3CCCCC3)cc2)C1 (stereo unspecified)
 : 0.68	i	4.1	-0.1	1.1	-4%	0.9
O=C(CSc1ccccn1)Nc1nonc1[N+](=O)[O-]
 : 0.68	i	-1.3	2.7	6.1	nt	1.7
N#C/C(=C(/O)CN1CCN(c2ccccc2F)CC1)c1nc(-c2ccc(Cl)cc2)cs1
 : 0.72	i	0.6	2.5	3.1	-1%	-1.7
O=C(NN1C(=O)c2ccccc2NC1c1ccc([N+](=O)[O-])o1)c1ccccc1 (stereo unspecified)
 : 0.68	i	0.7	2.7	4.8	-10%	-1.7
CCc1ccc2[nH]c(=O)c(CN(CCO)C(=O)NCc3ccccc3)cc2c1
 : 0.72	nt	-0.3	5.0	1.6	-9%	nt
Cc1[nH]c2ccccc2c1C(=O)COc1ccccc1F
 : 0.64	i	-0.4	2.3	2.7	10%	-3.9
O=c1c(Sc2ccccc2)c(C(F)(F)F)[nH]n1-c1ccccc1
 : 0.7	nt	0.7	4.0	3.5	2%	nt
O=C(CSc1nccn1-c1cccc(Cl)c1)Nc1ccc2c(c1)OCCO2
 : 0.72	i	-2.7	-2.6	4.3	-2%	4.4
COC(=O)CN1C(=O)Nc2ccc(C)cc2C1c1ccccc1 (stereo unspecified)
 : 0.72	i	1.4	0.9	0.5	6%	-0.3
Cc1ccc(N2CC(C(=O)OCC(=O)Nc3ccc(Cl)cc3)CC2=O)cc1 (stereo unspecified)
 : 0.66	i	1.7	nt	4.1	-4%	-7.5
O=[N+]([O-])c1ncccc1OCc1ccccc1Br
 : 0.64	i	7.9	3.3	2.2	nt	3.6
O=C1C(c2ccccc2)CN1Cc1ccccc1 (stereo unspecified)
 : nt	i	6.5	nt	nt	nt	-3.3
CC(C)N1C/C(=C/c2ccsc2)C(=O)/C(=C/c2ccsc2)C1
 : 0.7	i	2.5	0.5	2.0	0%	13
NNC(=O)CC1=NNC(=O)C1
 : 0.68	i	-4.6	nt	2.2	1%	-1.1
CCOC(=O)Cc1csc(NC(=O)Cc2ccccc2[N+](=O)[O-])n1
 : 0.72	nt	-8.9	-0.9	3.7	0%	1.6
COC(=O)C(NC(=O)Nc1ccccc1OC)C(C)C (stereo unspecified)
 : 0.69	nt	-2.2	-3.8	0.3	-5%	nt
CCOC(=O)N1CCC(N2C(=O)c3ccccc3C2Nc2ccc3c(C)cc(=O)oc3c2)CC1 (stereo unspecified)
 : 0.76	i	-1.8	0.7	i	-5%	0.4
Cc1ccc2nc3n(c2c1)CCCN3
 : 0.63	i	6.6	0.6	3.9	nt	-5.7
COc1cc(NC(=O)C2CCCO2)c(C(=O)O)cc1OC (stereo unspecified)
 : 0.74	i	-0.3	-2.5	0.3	?	-18
Cc1nc2cc(NC(=O)c3ccco3)ccc2n1C
 : 0.69	i	-0.7	-2.8	6.2	-4%	-1.9
CC(NC(=O)c1ccc(Cn2cc([N+](=O)[O-])cn2)cc1)c1ccccc1 (stereo unspecified)
 : 0.69	nt	-2.4	5.5	4.0	-8%	nt
O=C(NNC(=O)C1CCCC1)c1ccc(F)cc1
 : 0.71	i	1.4	-0.6	-2.6	nt	-0.6

New compounds follow.
Every second line gives: E coli growth	FGF22 binding	HNF4A DNA FP	RanGTP-Imp inh	UCH37 inh	Vif TR-FRET	MLL AF4-AF9 inh
CCCCN(C(C)=O)c1c(N)n(CCC)c(=O)n(CC(=O)Nc2cc(Cl)cc(Cl)c2)c1=O
 : 0.72	i	-4.3	3.2	4.7	0%	6.0
Cc1ccccc1N(CC(=O)NC1CCCCC1)C(=O)CCCC(=O)Nc1ccccn1
 : 0.7	i	-1.7	-2.1	2.3	nt	-0.2
O=C(COc1ccc(Cl)cc1Cl)NC(=O)N1CCOCC1
 : 0.67	nt	1.9	-3.3	1.2	-7%	nt
CN(Cc1ccccc1)C(=O)COC(=O)c1cc([N+](=O)[O-])ccc1N1CCOCC1
 : 0.66	i	1.1	-2.2	8.8	-3%	-3.7
Cc1c(CN(C)C(=O)C2CCC(=O)N(Cc3ccccc3F)C2)[nH]c2ccccc12 (stereo unspecified)
 : nt	i	-1.8	nt	nt	nt	6.0
O=C(/C=C/c1cccc(F)c1)N1CCc2ccccc21
 : 0.74	nt	-0.1	0.4	1.0	-2%	nt

Whole records, quoted from the list. Screens in order: E coli growth, FGF22 binding, HNF4A DNA FP, RanGTP-Imp inh, UCH37 inh, Vif TR-FRET, MLL AF4-AF9 inh
Profile of Cc1c(CN(C)C(=O)C2CCC(=O)N(Cc3ccccc3F)C2)[nH]c2ccccc12 (stereo unspecified) = nt, i, -1.8, nt, nt, nt, 6.0
Profile of CCCCN(C(C)=O)c1c(N)n(CCC)c(=O)n(CC(=O)Nc2cc(Cl)cc(Cl)c2)c1=O = 0.72, i, -4.3, 3.2, 4.7, 0%, 6.0
